# CtBP-E1A inh – qHTS Assay for Inhibitors of the CtBP/E1A Interaction; CtBP / adenovirus E1A interaction (AlphaScreen); AlphaScreen GST-E1A/His-CtBP binding, 1536-well; hits give low values; control for the full effect not named in the record; activity change, % (no concentration beside the values); 0.49% of 340,000 active; in the data active means activity change below about -65%; inconclusive means about -30% to -65%; inactive means above about -30%; further: on the % scale 0 is the no-effect control and ±100 the full control effect; compound concentration not given in the record
#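 Steps: dispense buffer (Tris pH 8.0, NaCl 300 mM, TCEP 1 mM, BSA, Tween 20); add 5X protein mix (GST-E1A, His-CtBP, 125 nM each); pin 23 nL compound; 2 h at 37 °C, dark; add 5X beads (50 ug/mL); 1 h; read.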
# TRPV1 PAM – HTS Assay for Compounds that Act as Potentiators of the Vanilloid Receptor 1 | Transient receptor potential cation channel subfamily V member 1 (Homo sapiens), Q8NER1 | TRPV1-expressing cells, Fluo-8 calcium influx, capsaicin EC20 potentiation; host cell line not named in the record; control for the full effect not named in the record | potentiation, % at 8.33 µM | 0.02% of 320,000 active; active means potentiation above 80%; inconclusive means 30% to 80%; inactive means below 30%; further: 0% is about no effect
# Target sequence (Q8NER1 whole entry, looked up): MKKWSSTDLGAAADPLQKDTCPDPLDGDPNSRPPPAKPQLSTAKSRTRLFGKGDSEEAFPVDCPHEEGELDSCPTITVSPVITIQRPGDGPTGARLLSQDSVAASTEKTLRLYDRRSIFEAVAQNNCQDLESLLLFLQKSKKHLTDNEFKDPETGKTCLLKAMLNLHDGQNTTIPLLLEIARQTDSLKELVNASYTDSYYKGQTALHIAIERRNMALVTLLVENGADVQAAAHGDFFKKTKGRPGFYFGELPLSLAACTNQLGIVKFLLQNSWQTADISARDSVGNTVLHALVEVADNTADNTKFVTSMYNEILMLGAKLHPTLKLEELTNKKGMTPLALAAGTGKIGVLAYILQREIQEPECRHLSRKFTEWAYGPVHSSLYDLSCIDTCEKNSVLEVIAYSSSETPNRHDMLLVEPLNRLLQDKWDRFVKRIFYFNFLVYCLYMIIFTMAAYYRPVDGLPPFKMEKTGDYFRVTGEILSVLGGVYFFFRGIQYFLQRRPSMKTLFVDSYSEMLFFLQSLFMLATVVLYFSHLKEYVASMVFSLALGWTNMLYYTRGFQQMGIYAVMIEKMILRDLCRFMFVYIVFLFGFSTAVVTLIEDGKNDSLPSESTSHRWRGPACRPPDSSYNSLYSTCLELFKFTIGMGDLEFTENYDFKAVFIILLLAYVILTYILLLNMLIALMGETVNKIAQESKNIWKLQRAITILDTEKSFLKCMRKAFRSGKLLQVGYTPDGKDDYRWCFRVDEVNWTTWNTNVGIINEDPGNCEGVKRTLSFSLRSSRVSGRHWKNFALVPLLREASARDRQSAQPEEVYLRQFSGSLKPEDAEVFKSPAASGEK
#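 Fluo-8 calcium influx in TRPV1-expressing cells, kinetic read (ex 480/em 520 nm). Compound added and read 3 min for agonist activity, followed by capsaicin at EC20 final and 2 min further read for enhancement.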
# Sfp inh – qHTS Assay for Inhibitors of Bacillus subtilis Sfp phosphopantetheinyl transferase (PPTase). 4'-phosphopantetheinyl transferase ffp (Bacillus subtilis), Q9F4F7. Biochemical Sfp PPTase activity, qHTS. Potency, µM, for the others: max response, negative = inhibition, hits mostly inhibitors. 3.5% of 310,000 active. AID 1490, 2009; active means well fitted inhibition curve with a large enough effect; inconclusive means small, poorly fitted or top-dose-only effect, or another doubt; inactive means no such curve, though single readings can be large or run the other way;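 further: the enzyme is Sfp with the accession as filed and its product quenches rhodamine fluorescence; potency means the concentration at half of the fitted maximal effect; 0% = enzyme reaction without inhibitor and -100% = no enzyme wells; top concentration of the series not given in the record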
#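 Sfp 15 nM + cpd, 15 min RT; start w/ rhodamine-CoA 5 uM, BHQ-2-YbbR 12.5 uM (final); 50 mM Hepes pH 7.6, 10 mM MgCl2, 0.01% NP-40, 0.01% BSA; read 525/598 nm at 0 and 30 min.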
# Six1-Eya2 inh – qHTS Assay for Inhibitors of the Six1/Eya2 Interaction; 0.56% of 360,000 active; Homeobox protein SIX1 (Homo sapiens) + Protein phosphatase EYA2 (Homo sapiens), …; activity change, % (concentration not given with the values); AlphaScreen GST-Six1/His-Eya2 binding, biochemical; hits give low values; control for the full effect not named in the record; AID 651725, 2012; in the data active = activity change below about -65%; inconclusive = about -30% to -65%; inactive = above about -30%; further: on the % scale 0 is the no-effect control and ±100 the full control effect
#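 GST-Six1 + His-Eya2 (5X stock: 250/500 nM); Tris pH 8.0, 300 mM NaCl, 0.05% BSA, 0.02% Tween 20; GSH donor/Ni acceptor beads; 1 h 37 °C dark; AlphaScreen readout.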
# D2 potentiator – Beta-Arrestin HTS for Positive Allosteric Modulators of the Human D2 Dopamine Receptor: Potentiators; DiscoveRx D2 beta-arrestin cells, luminescence, 90 min; 100% = 57 uM dopamine signal; potentiation, % (no concentration beside the values); 0.23% of 360,000 active; AID 624464, 2012; active = potentiation of 50% or more; inconclusive = 30% to 50%; inactive = 30% or less;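 further: compound concentration not given in the record; tested on top of an EC20 dose of dopamine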
#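 PathHunter beta-arrestin assay in DiscoveRx D2 cells. Compounds were added with an EC20 of dopamine (50 nM final) for 90 min at 37 deg C. Luminescence was read 1 h after detection reagent, with 57 uM dopamine as the EC100 control.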
# PINK1 modulator – A Quantitative High throughput Screen to Identify Chemical Modulators of PINK1 Expression. PINK1 immunofluorescence, high-content cytometry, 24 h. Potency, µM (highest dose often 76.6 µM), for inactives: at the highest dose activation (PINK1 increase), most hits filed as activators. 0.2% of 410,000 active. AID 624263, 2012; active = well fitted activation curve with a large enough effect; inconclusive = small, poorly fitted or top-dose-only effect; inactive = flat fitted curve, though single readings scatter; cell line not stated here;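 further: potency means the concentration at half of the fitted maximal effect; % of control where 0% means no effect; nearly all actives have a fitted effect of over 65% in size; a mitochondrial uncoupler was the plate control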
#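 Readout is PINK1 immunofluorescence, quantified alongside mitochondrial, cell and nuclear markers by laser-scanning microplate cytometry. Cells from a stable line were exposed to compound titrations (5 concentrations) for 24 hours, with CCCP controls.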
# D2 agonist – Beta-Arrestin HTS for Positive Allosteric Modulators of the Human D2 Dopamine Receptor: Agonists; D(2) dopamine receptor (Homo sapiens), P14416; DiscoveRx PathHunter D2 beta-arrestin, luminescence, 90 min; 100% = 57 uM dopamine signal; activation, % (test concentration not listed); 0.084% of 360,000 active; AID 624465, 2012; in the data active = activation above about 40%; inconclusive = about 15% to 40%; inactive = below about 15%; further: compound concentration not given in the record; the text of the record calls up to 30% inactive
#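 DiscoveRx PathHunter D2 beta-arrestin cells (2,100/well) attached overnight, then compound-stimulated 90 min at 37 C in HBSS/10 mM HEPES/0.1% Tween-20 buffer; beta-galactosidase complementation read by luminescence after 1 h at ambient temperature. Dopamine 57 uM final (EC100) as control.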
# Numbers without * were called inactive; ? = inconclusive; · = no result given; & = joins results of further samples; [ ] = another dose, or the depositor's remark.
# Results follow in this order: TRPV1 PAM, Sfp inh, CtBP-E1A inh, D2 agonist, Six1-Eya2 inh, D2 potentiator, PINK1 modulator
Cc1cccc(C2Nc3ccccc3C(=O)N2c2ccccc2)n1 (stereo not drawn)
 : -10, 4%, 7, 0.0, 0, 8, ·
CNC(=O)CS(=O)CC(=O)Nc1cc(OCCOC)c(Cl)cc1Cl (stereo not drawn)
 : 10, 7%, 5, -0.2, 5, -9, 1.6%
O=C(c1cccs1)c1no[n+]([O-])c1C(=O)c1cccs1
 : 29, 32µM*, 2, -7.6, 0, -36, -1.7%
Cn1c(C(=O)N2CCN(c3cccc(C(F)(F)F)c3)CC2)cc2sccc21
 : -3, 16%, -15, 0.6, -15, -7, 6.6%[38.3 µM]
CN(c1ccccc1)S(=O)(=O)c1cccc(C(=O)Nc2ccc(N3CCOCC3)cc2)c1
 : -17, ·, -20, 6.2, -6, 1, 1.4%
CCc1nc2ccc(C(=O)NCc3ccccc3)cc2nc1CC
 : -11, 15%, ·, 7.7, -2, -8, 1.8%
COC(=O)c1ccc(OC)c(NS(=O)(=O)c2ccc(-n3cnnn3)cc2)c1
 : 1, 7%, 0, -1.4, 12, -8, 0.8%
CC(C)CN(C(=O)COC(=O)c1cc2ccccc2cc1O)c1c(N)n(Cc2ccccc2)c(=O)[nH]c1=O
 : ·, ·, 0, -6.5, -2, -1, 4.8%
COc1ccc(C2(C)NC(=O)N(Cc3cc(Cl)cc4c3OCOC4)C2=O)cc1OC (stereo not drawn)
 : ·, -10%, 1, -1.1, -7, -11, -2.4%
COc1ccc(CNC(=O)[C@@H](C)NC(=O)[C@@H]2Cc3ccccc3CN2)cc1
 : -7, 12%, 0, -6.3, 8, -40, 0.1%
COc1cc(NC(=O)C/C(C)=N/NC(=O)Cc2ccccc2)c(OC)cc1Cl
 : 2, -4%, -20, -3.7, -17, -16, -0.1%
O=C1Nc2ccccc2C1=Nc1ccc(Cl)cc1
 : -15, 4%, 1, -17, -4, -30, -1.3%
CSCCC(C(=O)O)N1C(=O)c2ccc(C(=O)O)cc2C1=O (stereo not drawn)
 : -1, -9%, 2, -4.2, -4, -3, -1.0%
O=C(CNC(=O)c1cccc(F)c1)N/N=C/c1cccnc1
 : 12, 3%, ·, -5.8, 11, -8, 0.1%
O=C(Nc1cccc(NC(=O)C2CC3CCCC(C2)C3=O)n1)C1CC2CCCC(C1)C2=O (stereo not drawn)
 : 1, 23%, 17, -1.7, 2, 19, 0.6%
COc1cccc(NC(=O)Cc2cccs2)c1
 : -15, 5%, 10, -2.8, 0, -13, -1.3%
Cc1ccc(S(=O)(=O)N2CCOCC2)cc1NC(=O)COC(=O)CNC(=O)c1ccc(Oc2ccccc2)cc1
 : 13, 4%, -8, 1.2, 8, -2, -1.2%
c1ccc(CSCc2cn3ccccc3n2)cc1
 : -16, 8%, 2, 5.2, -7, 3, -0.5%
O=S(=O)(Nc1ccc(C(F)(F)F)cn1)c1ccccc1
 : 1, 7%, 2, -0.5, 10, 0, 0.5%
C/C(=N\OCC(=O)OCC(=O)Nc1cc(S(C)(=O)=O)ccc1Cl)c1ccc2c(c1)OCO2
 : -2, ·, ·, 4.9, 20, -1, 1.0%
CN(C)C1=NCCN1CC1CCCCC1
 : 8, ·, 8, -3.0, 8, -6, 1.8%
CCCCCN1C=CC=C/C1=C\C=C(C#N)C#N
 : -11, -3%, -17, -2.5, -6, -5, 1.6%
O=C(CNC(=O)c1ccc(Cl)cc1)NC(CO)c1ccccc1 (stereo not drawn)
 : -7, 7%, 12, -1.0, 3, -2, -0.4%
NCCNC(=O)Cn1c(=O)c2c3c(sc2n(Cc2ccccc2)c1=O)CCCC3
 : -3, -13%, 5, -4.8, -17, -8, -3.3%
COC(=O)C1=COC(C)C2CN3CCc4c([nH]c5ccccc45)C3CC12 (stereo not drawn)
 : -1, 9%, -24, -11, -2, -92, 1.6%
CNC(=O)c1cccc(NC(=O)c2ccccc2OCc2ccccc2)c1
 : -6, 0%, 4, -5.9, 8, -3, 2.4%
CC(C)CNC(=O)CCCc1ccccc1
 : -10, 19%, 1, -1.6, -6, -20, -1.2%
CCOc1ccc(N(CC(=O)NCc2ccc3c(c2)OCO3)C(=O)c2csnn2)cc1
 : -7, 11%, 1, 4.0, 2, 1, 4.7%
CCCN(CC1CC1)c1nc(N)c(C#N)c(CC#N)c1C#N
 : 8, -10%, 3, -2.7, -1, -9, 2.6%
O=C(Nc1nc2ccccc2s1)C1CC(=O)N(c2ccccc2)C1 (stereo not drawn)
 : -9, 6%, -12, 1.1, -2, 1, -1.5%
COc1ccc(OC)c(C(C(=O)NCc2ccco2)N(C(=O)Cn2nnc3ccccc32)C(C)C)c1 (stereo not drawn)
 : 20, 12%, -3, -0.9, 6, -4&-5, -5.6%
S=C(NCCN1CCOCC1)Nc1ccccc1Cl
 : 17, -16%, 19, -3.9, 26, 14, -0.6%
C(=N\n1cnnc1)/c1cccs1
 : -5, 2%, 15, -0.5, 1, -3, ·
COc1ccc(OC)c(-c2csc(N(C)C(=O)c3ccco3)n2)c1
 : 3, 6%, -4, 0.7, 6, 0, 7.3%
COc1ccc(NC(=O)C2CCCN(C(=O)c3ccc(Cl)cc3)C2)cc1Cl (stereo not drawn)
 : -12, ·, 5, -4.0, -6, -19, 3.5%
COc1ccc2[nH]c(=O)c(CNc3cccc(C)c3)cc2c1
 : 20, 10µM*, -2, -2.6, -13, 8, 2.3%
O=C(O)CSc1nc2ccccc2nc1Cc1ccccc1F
 : 3, 11%, 2, -1.9, -4, -4, -0.5%
COc1ccc(S(=O)(=O)N2CCN(C(=O)CN3C(=O)NC(C)(c4ccc5ccccc5c4)C3=O)CC2)cc1 (stereo not drawn)
 : -2, ·, 2, 0.5, -6, -15, 0.4%
Clc1ccccc1-c1nc2nc3ccccc3nc2n1-c1ccc2c(c1)OCO2
 : -12, -4%, -4, 1.6, 2, 14, -2.8%
COc1ccc(CN(C)C(=O)COC(=O)c2cc([N+](=O)[O-])ccc2N2CCCC2)c(OC)c1OC
 : ·, ·, ·, 4.1, -20, -16, -0.6%
Cc1cccc(C)c1NC(=O)CN(C)C(=O)c1cc([N+](=O)[O-])ccc1N1CCOCC1
 : 1, -6%, -3, -3.0, 3, -6, -0.2%
Cn1cccc1CC(=O)N/N=C/C=C/c1ccccc1
 : -1, 13%, -9, -2.7, -18, -8, -0.4%
O=C(COC(=O)CCS(=O)(=O)c1ccccc1)NNC(=O)c1ccc([N+](=O)[O-])cc1
 : ·, ·, -8, -3.7, 4, -14, 1.8%
COC(=O)c1ccc(C2C(C(=O)c3cc4ccccc4o3)=C(O)C(=O)N2c2cc(C)on2)cc1 (stereo not drawn)
 : 12, -7%, 5, -4.2, 5, -7, 1.4%
Nc1nnc(CCCCCc2nnc(N)s2)s1
 : 9, -11%, ·, -4.2, 14, -13, 0.4%
O=C1CC(C(=O)N2CCc3ccccc32)CN1c1ccc(F)cc1 (stereo not drawn)
 : 5, 9%, -23, -6.8, -3, -7, -3.1%
O=S(N1CCCCCC1)C12CC3CC(CC(C3)C1)C2 (stereo not drawn)
 : -23, 4%, 2, -3.9, 3, -5, -2.1%
CC1(c2ccc3ccccc3c2)NC(=O)N(CC(=O)Nc2ncccc2O)C1=O (stereo not drawn)
 : 10, ·, ?, -3.7, ?, -3, 2.2%
Cc1ccc(-c2csc(Nc3ccccc3)[n+]2CCc2ccccc2)cc1
 : -13, -8%, ·, -0.5, -27, -7, 5.0%
COc1ccc(S(=O)(=O)N2CCCCCC2)cc1NC(=O)Cc1ccccc1F
 : -3, 14%, 5, -3.3, 1, -10, 1.1%

# Next entries:
# Results follow in this order: TRPV1 PAM, Sfp inh, CtBP-E1A inh, D2 agonist, Six1-Eya2 inh, D2 potentiator, PINK1 modulator
CCC(=O)N1c2ccc(S(=O)(=O)NC3CCCCC3)cc2CC1C (stereo not drawn)
 : -14, 21%, -2, -0.1, 1, -7, 1.0%
CCCCNC(=O)COC(=O)c1c2c(nc3ccccc13)/C(=C/c1cccs1)CC2
 : 0, ?, 43, -4.9, 22, -3, 0.5%
N#Cc1nc(Cc2ccccc2)oc1NCc1cccnc1
 : -1, 6%, -2, 0.8, 9, -17, -1.0%
Cc1cc(C)n(C(=O)c2cccc([N+](=O)[O-])c2C)n1
 : 19, -5%, ·, -7.6, -12, -17, 1.4%
COc1ccc(C(c2nnnn2CC2CCCO2)N2CCN(c3ccc(F)cc3)CC2)cc1 (stereo not drawn)
 : -17, -22%, -4, -1.0, -11, 5, -1.8%
C=CCn1c(O)c(N=O)c2cc(C)ccc21
 : 2, 0%, -18, -1.5, 6, -2, -0.5%
C#CCOCCOCCOCCNc1nc(N2CCOCC2)nc(N2CCN(C(=O)[C@H](CC(N)=O)n3cc(C(N)[C@@H](C)CC)nn3)CC2)n1 (stereo partly drawn)
 : ·, ·, 5, 0.2, 2, -7, -0.9%
Cc1cc(NC(=O)Nc2ccc3c(ccn3C)c2)sn1
 : ·, 79µM*, -14, 0.0, -15, -14, -0.6%
O=C(OCc1ccccc1)N1CCC2CC1c1ccc(/C=C/CCCCl)cc12 (stereo not drawn)
 : ·, ·, -11, -8.7, 30, -8, -0.1%
Cc1c(NC(=O)C(C)OC(=O)C23CC4CC(CC(Br)(C4)C2)C3)c(=O)n(-c2ccccc2)n1C (stereo not drawn)
 : 0, 19%, 16, -3.1, 10, -4, 2.1%
COC(=O)CCCC(=O)N1CCCC(C(=O)c2ccc(-c3ccccc3)cc2)C1 (stereo not drawn)
 : 28, 4%, ·, -1.6, -13, -22, 1.1%
CCCN1C(=O)C2(SC(NC(C)=O)=NN2C(C)=O)c2cc(C)cc(C)c21 (stereo not drawn)
 : -2, 11%, 7, 0.7, -1, -1, -0.4%
CC1(C)CC(=O)NC=C(c2ccccc2)C1
 : 5, 19%, 9, -2.7, -2, -5, 0.3%
O=C(Nc1ccccc1F)c1ccccc1-c1ccccc1
 : 0, 2%, -3, -4.6, 3, -1, 2.7%
